# CBX7 inh = CBX7 chromodomain binding inhibitors, primary screen, biochemical, AlphaScreen; AID 1224903, 2016; Chromobox protein homolog 7 (Homo sapiens), O95931; normalised signal (fraction of DMSO) (test concentration not listed); actives 1.1% (n = 66,000); AlphaScreen His6-CBX7 / biotin-H3K27me3 peptide binding; hits give low values; in the data active = normalised signal below about 0.5;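 also: 100 nL library stock added to about 20 µL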
# Target sequence (O95931 whole entry, looked up): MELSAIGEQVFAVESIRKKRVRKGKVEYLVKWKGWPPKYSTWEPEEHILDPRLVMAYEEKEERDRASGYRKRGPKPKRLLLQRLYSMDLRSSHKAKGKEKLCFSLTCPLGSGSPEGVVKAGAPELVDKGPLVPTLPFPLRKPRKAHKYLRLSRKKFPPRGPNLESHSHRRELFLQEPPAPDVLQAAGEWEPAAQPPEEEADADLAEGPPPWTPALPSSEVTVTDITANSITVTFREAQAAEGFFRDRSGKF
# CBX7 inh z-score = also measured in CBX7 inh; calls as there; z-score; measured here: z-score of CBX7 signal; some inactives read as strong as hits; reference of the scale not given here;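 same signal on another scale; lower means less binding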
# Numbers without * were called inactive; & = joins results of further samples. A portion of the library; count on the stated rates, not on these rows.
mol | CBX7 inh | CBX7 inh z-score
Cc1c(C(=O)NC2CCCC(C)C2C)oc2ccc(S(=O)(=O)N3CCCCCC3)cc12 (configuration not stated) | 1 | 0.43
COCCNC(=O)CSc1nc(-c2ccccc2)[nH]c1-c1ccc(F)cc1 | 1 | 0.063
O=C(CCCCn1c(=O)[nH]c2ccccc2c1=O)N1CCN(c2ccccn2)CC1 | 0.98 | -0.052
CCCSc1nnc(Cc2cc(=O)[nH]c(=O)[nH]2)n1-c1ccc(F)cc1 | 1 | 0.27
COC(=O)c1ccccc1NC(=O)c1sc2ncn(CC(=O)N3CCCCC3)c(=O)c2c1C | 1 | 0.31
CCn1c(=O)cc(OCC(=O)Nc2cc(Cl)ccc2OC)c2ccccc21 | 0.87 | -2.1
CCCCNS(=O)(=O)c1ccc2nc(-c3cccnc3)cc(C(=O)NCCC)c2c1 | 1 | 0.45
CC(C)=C1C2C=CC1C1C(=O)N(c3cccc4ccccc34)C(=O)C21 (configuration not stated) | 1 | 0.5
COc1ccc(-n2nc(C(=O)Nc3ccc(OC)c(OC)c3)c3ccccc3c2=O)cc1 | 0.91 | -2.5
O=C1c2ccccc2C2=NS(=O)(=O)c3cccc1c32 | 1.1 | 1.1
Cc1onc(-c2ccccc2)c1C(=O)Nc1ccc(S(N)(=O)=O)cc1 | 0.98 | -0.28
Cc1ccc(Cl)cc1N1CCN(C(=O)c2ccc3c(c2)NC(=O)c2ccccc2S3)CC1 | 1.1 | 2.4
CCOc1ccc(Br)cc1C1CC(=O)Nc2cc3c(cc21)OCO3 (configuration not stated) | 0.95 | -2
Cc1ccc2c(c1)c1c3n2CCN(CC(O)CNC(C)C)C3CCC1 (configuration not stated) | 0.86 | -1.5
CC1CC(C)CN(CCCNS(=O)(=O)c2ccc3c(c2)CCN3C(=O)C2CC2)C1 (configuration not stated) | 1 | 0.36
Cc1cccc(CN2C(=O)CSc3ccc(C(=O)NCC4CCCO4)cc32)c1 (configuration not stated) | 0.9 | -1
COc1ccc(OC)c(C2=NOC(C(=O)Nc3ccccc3C(F)(F)F)C2)c1 (configuration not stated) | 0.99 | -0.55
O=C(CCCn1nc(-c2ccccc2)c2ccccc21)NCc1ccc(F)cc1 | 1.2 | 2.6
Cc1ccccc1Cn1c(C(C)NC(=O)c2ccccc2)nc2ccccc21 (configuration not stated) | 1 | 0.71
CCC(C(=O)Nc1ccccc1OC)n1c(SCc2cccc(F)c2)nc2ccncc21 (configuration not stated) | 0.96 | -1

# Entries from the list above containing four or more nitrogen atoms:
mol | CBX7 inh | CBX7 inh z-score
O=C(CCCCn1c(=O)[nH]c2ccccc2c1=O)N1CCN(c2ccccn2)CC1 | 0.98 | -0.052
CCCSc1nnc(Cc2cc(=O)[nH]c(=O)[nH]2)n1-c1ccc(F)cc1 | 1 | 0.27
COC(=O)c1ccccc1NC(=O)c1sc2ncn(CC(=O)N3CCCCC3)c(=O)c2c1C | 1 | 0.31
CCCCNS(=O)(=O)c1ccc2nc(-c3cccnc3)cc(C(=O)NCCC)c2c1 | 1 | 0.45
CCC(C(=O)Nc1ccccc1OC)n1c(SCc2cccc(F)c2)nc2ccncc21 (configuration not stated) | 0.96 | -1

# Following part
mol | CBX7 inh | CBX7 inh z-score
COc1cc(OC)cc(-c2nc(-c3ccccc3)c(-c3cccs3)[nH]2)c1 | 0.89 | -0.71
O=C(CCc1nc2ccccc2n(Cc2c(F)cccc2Cl)c1=O)NCc1ccc2c(c1)OCO2 | 1.1 | 0.095
Cc1c(NC(=O)c2cccc(F)c2)cccc1-c1nc2ncccc2o1 | 1 | 0.43
Cc1ccc(Nc2nc(-c3ccccc3)c3cc(Cl)ccc3n2)cc1 | 1.7 | 12
COc1cccc(-c2nc(-c3ccc(NC(=O)c4cccnc4)cc3)no2)c1 | 1 | 0.13
COc1ccc(-c2noc(N(C)CC(=O)Nc3ccc(Oc4ccccc4)cc3)n2)cc1 | 1 | 1.6
COc1ccccc1C(=O)Nc1ccc(Cl)c(-c2nc3ccc(C)cc3o2)c1 | 1.3 | 0.6
CCOC(=O)CNC(=O)CSc1nnc(Cc2cc(=O)[nH]c(=O)[nH]2)n1-c1ccc(F)cc1 | 1 | 0.65
O=C(NCCc1ccccc1)c1cccc2c1C(=O)N(Cc1cccnc1)C2 | 0.97 | -0.034
COc1ccc(Cc2nnc(SCC(=O)Nc3cc(F)ccc3C)o2)cc1 | 1.1 | 1.2
CCCC1=Nc2cc(C(=O)NCCCN3CCOCC3)ccc2Sc2ccc(C)cc21 | 0.88 | -1.8
COC(=O)c1ccc2c(c1)C(=O)N(c1nccs1)C2=O | 1.1&0.89 | 1&-1.3
O=C(Cn1cnc2scc(-c3ccccc3)c2c1=O)NCc1ccccn1 | 0.99 | -0.068
Brc1ccc2nc(N3CCOCC3)nc(-c3ccccc3)c2c1 | 1.1 | 3.9
COc1ccc(C(=O)Nc2c(-c3ccc(F)cc3)nc3cc(C)ccn23)cc1OC | 0.94 | -2.1
Cc1cc(OCC(=O)Nc2ccc(S(=O)(=O)Nc3ncccn3)cc2)ccc1C(C)C | 0.96 | -1
COc1ccc(NC(=O)Cn2nc(Cc3ccncc3)c3ccccc3c2=O)c(OC)c1 | 1.1 | 1.9
CCOc1ccc(N2C(=O)NC(Cc3c[nH]c4ccccc34)C2=O)cc1 (configuration not stated) | 1 | -0.14
O=C(Cn1c2c(c(-c3ccccc3)cc1=O)CCCC2)N1CCOCC1 | 1 | 1.3
COC(=O)c1ccccc1NC(=O)c1sc2ncn(Cc3ccccc3F)c(=O)c2c1C | 1.1 | 0.91
COc1ccc(CCNC(=O)C2CC(c3ccc(F)cc3)=NO2)cc1OC (configuration not stated) | 1 | 0.62
Cc1ccc(OCCn2c(C)nc3ccccc32)cc1 | 1 | 0.21
CCOc1ccc2nc(NC(=O)C3CCCN(S(=O)(=O)c4cccs4)C3)sc2c1 (configuration not stated) | 0.77 | -0.3
COCCCNC(=O)c1ccc2c(c1)nc(C)n2-c1ccc(F)cc1F | 1 | 0.017
CCOc1ccc2c(c1)/C(=C(\C(Cl)=C(Cl)Cl)[N+](=O)[O-])N2 | 1.1 | 1.1
Cc1ccc(Cl)cc1N1CCN(C(=O)C2CCC(=O)N2C(C)C)CC1 (configuration not stated) | 1.1 | 1.8
O=C(Nc1nccs1)c1ccc(NC(=O)C(F)(F)F)cc1 | 0.99 | -0.22
O=C(c1ccccc1)N1CCN(c2nc(-c3ccc(Cl)cc3)cs2)CC1 | 0.99&0.69 | -0.15&-0.35
Cc1sc2ncnc(Oc3cccc4cccnc34)c2c1C | 1.5 | 0.92
CN(Cc1ccccc1)C(=O)c1cc2n(n1)C(C(F)(F)F)CC(c1ccccc1)N2 (configuration not stated) | 0.95 | -0.44
COC(=O)c1ccc2c(c1)N(Cc1ccccc1)C(=O)c1ccccc1S2 | 1.1 | 0.76
Cc1ccc(NC(=O)Cc2ccc(NC3=NC4CS(=O)(=O)CC4S3)cc2)cc1 (configuration not stated) | 0.94 | -0.66
O=C(CSc1nc(-c2ccc3c(c2)OCO3)cn1-c1ccccc1)Nc1ccc(F)cc1 | 1.1 | 1.7
Cc1cc(S(=O)(=O)Nc2ccc3oc4c(c3c2)CC(C)CC4)ccc1Cl (configuration not stated) | 0.99 | -0.095
O=C(CN1C(=O)CC(c2ccccc2)Sc2ccccc21)NCc1ccc2c(c1)OCO2 (configuration not stated) | 0.87 | -2.2
COc1ccc(CCNC(=O)c2ccc3c(c2)NC(=O)c2ccccc2S3)c(OC)c1 | 0.87 | -0.93
Cc1ccc(C)c(N(C)C(=O)Cn2nc(Cc3ccncc3)c3ccccc3c2=O)c1 | 0.96 | -1.2
Cc1ccc(Cn2nc(C)c(NC(=O)c3cc(-c4ccc(Cl)c(Cl)c4)on3)c2C)cc1 | 1 | 0.28
O=C(Cn1cnc2scc(-c3ccccc3)c2c1=O)NCc1ccccc1 | 1 | 0.14
O=C(CN1CCN(Cc2ccc(F)cc2Cl)C1=O)NCc1ccc(F)cc1 | 1.1 | 1

# Pulled one by one from above, 7 records:
mol | CBX7 inh | CBX7 inh z-score
Cc1cc(S(=O)(=O)Nc2ccc3oc4c(c3c2)CC(C)CC4)ccc1Cl (configuration not stated) | 0.99 | -0.095
O=C(Cn1cnc2scc(-c3ccccc3)c2c1=O)NCc1ccccc1 | 1 | 0.14
COC(=O)c1ccc2c(c1)N(Cc1ccccc1)C(=O)c1ccccc1S2 | 1.1 | 0.76
O=C(c1ccccc1)N1CCN(c2nc(-c3ccc(Cl)cc3)cs2)CC1 | 0.99&0.69 | -0.15&-0.35
O=C(Nc1nccs1)c1ccc(NC(=O)C(F)(F)F)cc1 | 0.99 | -0.22
Cc1ccc(Cn2nc(C)c(NC(=O)c3cc(-c4ccc(Cl)c(Cl)c4)on3)c2C)cc1 | 1 | 0.28
Cc1ccc(OCCn2c(C)nc3ccccc32)cc1 | 1 | 0.21

# Remaining list, next part:
mol | CBX7 inh | CBX7 inh z-score
Cc1ccc(CCN2CC(C(=O)NCc3ccc4c(c3)OCO4)CC2=O)cc1 (configuration not stated) | 0.99 | -0.53
Cc1ccc(C(=O)Nc2ccc3nc(N4CCOCC4)cc(C)c3c2)cc1C | 1 | -0.0036
COc1cccc(-c2nn(C)c3sc(C(=O)Nc4cccc(SC)c4)cc23)c1 | 0.98 | -0.5
O=C(Nc1ccc(O)cc1)c1nn2c(c1Cl)NC(c1cccs1)CC2C(F)(F)F (configuration not stated) | 0.96 | -0.39
Cc1ccc(NC(=O)Cn2cc(S(=O)(=O)c3ccccc3)c(=O)c3cc(C)ccc32)cc1 | 0.86 | -2
Cc1ccccc1NC(=O)NCCCN1CCN(c2ccccc2F)CC1 | 1.2 | 3.7
Cc1ccc2nc(NS(=O)(=O)c3ccc(Cl)cc3)c(NCCO)nc2c1 | 1.1 | 1.1
Cc1ccc(Nc2ncc(C(=O)NCCCN3CC(C)CC(C)C3)c3ccccc23)cc1Cl (configuration not stated) | 1.2 | 7.2
CC1CCCCC1NC(=O)CCn1nc(-c2ccc(Cl)cc2)ccc1=O (configuration not stated) | 1.1 | 2.4
Cc1cc2c(cc1C)C(c1cccc(Cl)c1Cl)CC(=O)N2 (configuration not stated) | 1 | 0.064
O=C(NC1CCCCC1)c1ccc(Cl)c(NC2=NC3CS(=O)(=O)CC3S2)c1 (configuration not stated) | 1.2 | 2.1
COc1ccc(N2CCN(C(=O)c3cccc4c3C(=O)N(Cc3cccnc3)C4)CC2)cc1 | 0.96 | -0.49
CCOC(=O)c1sc2nc(C)n(CC(=O)Nc3ccc(F)cc3F)c(=O)c2c1C | 1.1 | 1.5
Oc1ccc(Nc2nc(-c3cccnc3)cs2)cc1 | 0.9 | -1.9
CCCCNC(=O)C1C2C=CC3(CN(Cc4ccccc4Cl)C(=O)C13)O2 (configuration not stated) | 1.2 | 3.2
O=C(CN1CCN(Cc2cccc(Cl)c2)C1=O)N1CCCC1 | 0.96 | -0.5
O=C(NCc1cccs1)c1ccc(CNc2c(N3CCCCC3)c(=O)c2=O)cc1 | 1.4 | 0.89
Cc1ccc(NC(=O)CCc2c(C)nc3ncnn3c2C)cc1 | 1.1 | 1.6
CCc1ccc2oc(-c3ccc(C)c(NC(=O)CC(C)C)c3)nc2c1 | 1.1 | 2.6
CCN1CCN(c2cc(C)c3cc(NC(=O)C4CCCO4)ccc3n2)CC1 (configuration not stated) | 0.98 | -0.96

# Ordered by the number under CBX7 inh z-score (highest first): three from the list above
molecule	CBX7 inh z-score
Cc1ccc(NC(=O)CCc2c(C)nc3ncnn3c2C)cc1	1.6
O=C(NCc1cccs1)c1ccc(CNc2c(N3CCCCC3)c(=O)c2=O)cc1	0.89
COc1ccc(N2CCN(C(=O)c3cccc4c3C(=O)N(Cc3cccnc3)C4)CC2)cc1	-0.49

# Following part
mol | CBX7 inh | CBX7 inh z-score
O=C(CSc1nnc(Cc2cc(=O)[nH]c(=O)[nH]2)n1-c1ccccc1)NCc1ccc2c(c1)OCO2 | 1.1 | 0.34
COc1ccc(-c2noc(CCC(=O)N(C)c3ccccc3C)n2)cc1 | 0.93 | -1.4
COc1ccc(N2CCN(C(c3cccs3)C(C)NC(=O)c3cccnc3)CC2)cc1 (configuration not stated) | 1 | 0.097
CC(Oc1ccccc1)C(=O)Nc1c2c(nn1-c1ccc(F)cc1)CS(=O)(=O)C2 (configuration not stated) | 1.1 | 1.3
O=C(NCCCN1CCCC1=O)[C@@H](c1ccccc1)N1Cc2ccccc2C1=O | 0.98 | -0.42
CCn1c(CN2CCOCC2)nc2c1c(=O)[nH]c(=O)n2C | 1.1 | 2.3
CCCC(=O)NC(C)c1nc2ccccc2n1CC(C)C (configuration not stated) | 1.1 | 1.3
COc1ccc(-n2nnc3c(=O)n(CC(=O)Nc4ccc(F)cc4)cnc32)cc1 | 0.94 | -1.2
CCOC(=O)c1ccc(NC(=O)CSc2nccn2-c2cccc(C)c2)cc1 | 0.83 | -0.17
COc1ccc(NC2c3ccccc3C(=O)N2c2ccc(Cl)cn2)cc1 (configuration not stated) | 0.72 | -4
Cc1cccc(NC(=O)Cn2nnc(-c3ccc(OCc4ccccc4F)cc3)n2)c1 | 1.5 | 4.3
CCOC(=O)Cn1cnc2c(nnn2-c2ccc(OC)cc2)c1=O | 1 | 1.1
O=C(Nc1ccc(F)c(Cl)c1)C1CCCN1S(=O)(=O)c1cccc2cccnc12 (configuration not stated) | 0.99 | -0.3
O=C(CN1C(=O)CSc2ccccc21)NC1CC1 | 0.84 | -2.7
CC(C)Cc1cc(C(=O)N2CCN(c3ccc(F)cc3)CC2)no1 | 1 | 0.032
CCOc1ccccc1NC(=O)CCNC(=O)Cn1ccc2ccccc2c1=O | 1 | 0.41
CC(=O)N1CCc2cc(S(=O)(=O)NCCC(=O)Nc3cccc(C(F)(F)F)c3)ccc21 | 0.91 | -1.7
CCC1Oc2ccc(C)cc2N(CC(=O)N(C)CCC#N)C1=O (configuration not stated) | 0.99 | -0.42
Cc1cc(C)cc(C(=O)NCCc2cc3cc(C)c(C)cc3[nH]c2=O)c1 | 0.98 | -0.86
COc1ccc(Nc2cc(C(=O)NCCCN3CCC(C)CC3)c3ccccc3n2)cc1OC | 0.68 | -3.8
COc1cccc(C2CC(c3ccccc3Cl)n3ncnc3N2)c1 (configuration not stated) | 1 | 0.69
O=C(CC1C(=O)N(c2ccccc2)C(=O)N1Cc1cccs1)Nc1ccccc1 (configuration not stated) | 1 | 0.018

# High-throughput results (PubChem BioAssay)
